# Screening data: PubChem, Broad Institute
# FGF22 binding – shifts melting point of recombinant human FGF22. Q9HCT0. recombinant FGF22 thermal shift, SYPRO orange fluorescence; percent of sucrose octasulfate shift, DMSO zero. calls only at 9.99 µM. 340,000 compounds, 1.5% hits. AID 651658;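 active = melting point raised past a set limit in the mean and every replicate; three in four hits are not shown here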
# Target sequence (Q9HCT0 whole entry, looked up): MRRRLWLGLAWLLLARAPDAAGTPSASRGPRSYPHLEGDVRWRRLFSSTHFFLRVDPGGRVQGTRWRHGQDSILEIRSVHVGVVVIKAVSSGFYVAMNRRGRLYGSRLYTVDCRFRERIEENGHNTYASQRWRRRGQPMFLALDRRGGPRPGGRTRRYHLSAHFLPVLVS
# rRNA inh HTS – inhibitors of bacterial rRNA selective over humanized ribosomes; GFP signal change (wild-type ribosome), % (concentration not given with the values); AID 720706; 350,000 compounds, 1.6% hits; E. coli WT GFP vs humanized-ribosome RFP mutants, fluorescence, 24 h; stronger effect = lower value; DMSO median 0, no signal -100;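 active = significant combined selectivity score with lowered wild-type GFP, culture density cut under 30%, mutant RFP and density less affected; inactive = any of these conditions unmet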; also: one replicate is shown; some compounds called inactive have numbers as strong as hits
# rRNA inh HTS OD600 – further read-out of rRNA inh HTS, marked with its call; OD600 change, %; measured here: OD600 growth;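 optical density of the mix in the first replicate; 0 = DMSO median and -100 = no signal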
# rRNA inh HTS RFP – also measured in rRNA inh HTS; calls as there; RFP signal change, %; measured here: RFP humanized mutant strains;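 first replicate; 0 = DMSO median and -100 = no signal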
# Active calls of the source: *; i = inactive; + = active, no number. Only part of the results is shown; rates above refer to the full screens.
compound | FGF22 binding | rRNA inh HTS | rRNA inh HTS OD600 | rRNA inh HTS RFP
COCC(=O)N(C)C[C@H]1Oc2ncc(C#Cc3cccnc3)cc2C(=O)N([C@H](C)CO)C[C@@H]1C | i | 10 | 11 | -4.3
CCCNC(=O)Nc1ccc2c(c1)C(=O)N(C)C[C@H](OC)[C@@H](C)CN(C(=O)c1ccccc1F)[C@H](C)CO2 | + | 2 | 5 | -3.1
COc1ccc(N2C(=O)c3n[nH]c(C)c3C2c2ccc(F)cc2)cc1 (stereo not drawn) | i | -32* | -26* | -5.5*
Cc1noc(C)c1S(=O)(=O)Nc1ccc2c(c1)CC(=O)N([C@@H](C)CO)C[C@H](C)[C@@H](CN(C)C(=O)Nc1cccc3ccccc13)O2 | i | 0 | -2 | -0.1
C[C@H]1CN([C@@H](C)CO)C(=O)Cc2cc(NS(=O)(=O)c3ccccc3)ccc2O[C@@H]1CN(C)S(=O)(=O)c1ccc(Cl)cc1 | i | -2 | -14 | -0.3
CO[C@@H]1CN(C)C(=O)c2cc(NS(C)(=O)=O)ccc2OC[C@H](C)N(Cc2ccccc2)C[C@H]1C | i | -4 | -13 | -2.3
COc1ccccc1CNC(=O)C[C@@H]1CC[C@@H]2[C@H](COC[C@H](O)CN2C(=O)Nc2ccccc2)O1 | i | -6 | -2 | -4.8
CC(C)NC(=O)N(C)C[C@@H]1Oc2c(NC(=O)NC3CCCCC3)cccc2C(=O)N([C@@H](C)CO)C[C@@H]1C | i | 6 | 11 | -0.2
C=CCNc1ccc2c(c1)OC[C@H](Cc1ccccc1)NS2(=O)=O | i | -9 | -6 | 0.1
C[C@@H]1CN([C@H](C)CO)C(=O)c2cc(C3=CCCC3)cnc2O[C@H]1CN(C)C(=O)C1CCCCC1 | i | -7 | -3 | -0.2
CO[C@H]1CN(C)C(=O)c2cc(NS(C)(=O)=O)ccc2OC[C@H](C)N(C(=O)C2CCCC2)C[C@H]1C | i | -2 | -5 | 0.2
COc1ccccc1CNC(=O)C[C@H]1CC[C@H]2[C@H](COc3ccc(NC(=O)Nc4ccc(F)c(F)c4)cc3C(=O)N2C)O1 | i | -3 | -5 | 1.0
O=C(C[C@H]1CC[C@@H]2[C@H](COC[C@H](O)CN2CCc2ccccc2)O1)NCc1ccccc1 | i | -2 | 4 | -2.0
C[C@H](CO)N1C[C@H](C)[C@H](CN(C)C(=O)NC2CCCCC2)OCCCC[C@H](C)Oc2ccc(NC(=O)Nc3ccccc3)cc2C1=O | i | 1 | 2 | 0.3
COc1cccc(S(=O)(=O)N[C@@H]2CC[C@@H](CC(=O)NCc3ccncc3)O[C@H]2CO)c1 | i | 0 | -6 | -1.6
Cc1noc(C)c1NC(=O)N(C)C[C@H]1OCCCC[C@@H](C)Oc2ccc(NC(=O)Nc3ccc(C(F)(F)F)cc3)cc2C(=O)N([C@H](C)CO)C[C@@H]1C | i | 1 | 6 | -1.7
O=C(Cc1cn(Cc2ccccc2)c2ccccc12)Nc1ccc(Nc2cccnc2)c(Br)c1 | i | -4 | -1 | 3.7
O=C([C@H]1[C@H](CO)[C@H]2Cn3c(cccc3=O)[C@@H]1N2Cc1ccccc1)N1CCCCC1 | i | 1 | 8 | -2.4
CS(=O)(=O)N1CCCCN2[C@H](CO)[C@H](c3ccc(Br)cc3)[C@H]2C1 | i | 3 | -2 | -0.3
C[C@@H]1CN([C@@H](C)CO)C(=O)c2cc(NC(=O)Nc3ccc(F)cc3)ccc2O[C@@H](C)CCCCO[C@@H]1CN(C)C(=O)C1CCCCC1 | i | 0 | 0 | -2.7

# Given with values ahead of the structure: part of the list above.
FGF22 binding	rRNA inh HTS	rRNA inh HTS OD600	rRNA inh HTS RFP	compound
i	0	-6	-1.6	COc1cccc(S(=O)(=O)N[C@@H]2CC[C@@H](CC(=O)NCc3ccncc3)O[C@H]2CO)c1
i	-3	-5	1.0	COc1ccccc1CNC(=O)C[C@H]1CC[C@H]2[C@H](COc3ccc(NC(=O)Nc4ccc(F)c(F)c4)cc3C(=O)N2C)O1
i	-2	4	-2.0	O=C(C[C@H]1CC[C@@H]2[C@H](COC[C@H](O)CN2CCc2ccccc2)O1)NCc1ccccc1
i	0	0	-2.7	C[C@@H]1CN([C@@H](C)CO)C(=O)c2cc(NC(=O)Nc3ccc(F)cc3)ccc2O[C@@H](C)CCCCO[C@@H]1CN(C)C(=O)C1CCCCC1
i	3	-2	-0.3	CS(=O)(=O)N1CCCCN2[C@H](CO)[C@H](c3ccc(Br)cc3)[C@H]2C1

# The list continues.
compound | FGF22 binding | rRNA inh HTS | rRNA inh HTS OD600 | rRNA inh HTS RFP
COCC(=O)N(C)C[C@H]1Oc2ncc(C#Cc3ccccc3)cc2C(=O)N([C@H](C)CO)C[C@@H]1C | i | 0 | 3 | -0.3
C[C@H]1CN([C@@H](C)CO)C(=O)c2cc(NC(=O)Nc3ccccc3)ccc2O[C@@H]1CN(C)Cc1ccc(Cl)c(Cl)c1 | i | 3 | 4 | 0.0
COc1ccc(NC(=O)Nc2cccc3c2O[C@@H](CN(C)Cc2ccncc2)[C@@H](C)CN([C@H](C)CO)C3=O)cc1 | i | 1 | -2 | 0.9
CC(C)NC(=O)Nc1cccc2c1O[C@@H](CN(C)C(=O)Nc1ccccc1)[C@@H](C)CN([C@H](C)CO)C2=O | i | 0 | -2 | -0.9
C[C@@H]1CN([C@H](C)CO)S(=O)(=O)c2ccc(-c3ccc(F)cc3)cc2O[C@@H]1CN(C)S(C)(=O)=O | i | -6 | -9 | -0.8
CC(C)NC(=O)N[C@H]1CC[C@@H](CCNS(=O)(=O)c2ccc(F)cc2)O[C@@H]1CO | i | 2 | -1 | -4.3
C[C@@H]1CN([C@H](C)CO)C(=O)Cc2cc(NC(=O)NC3CCCCC3)ccc2O[C@H]1CN(C)Cc1ccc(C(=O)O)cc1 | i | 3 | 11 | -4.4
COCC(=O)N1[C@@H](C#N)[C@@H](c2ccccc2-c2ccccc2)[C@@H]1CO | i | 7 | 12 | -3.8
C[C@H]1CN([C@@H](C)CO)C(=O)c2cc(NC(=O)Nc3cccc4ccccc34)ccc2O[C@@H]1CN(C)S(=O)(=O)c1ccccc1 | i | -1 | 4 | 3.8
Cc1ccc(S(=O)(=O)N(C)C[C@@H]2Oc3ccc(NS(=O)(=O)c4ccc(F)cc4)cc3C(=O)N([C@H](C)CO)C[C@@H]2C)cc1 | i | -1 | -14 | 2.9
C[C@@H]1CN([C@@H](C)CO)C(=O)Cc2cc(NS(=O)(=O)c3ccc(F)cc3)ccc2O[C@@H]1CN(C)C(=O)Nc1ccccc1 | i | 1 | 0 | 0.1
C[C@@H]1CN([C@H](C)CO)C(=O)c2cc(C#CC3(O)CCCC3)cnc2O[C@@H]1CN(C)Cc1ccccc1 | i | 6 | 5 | -3.7
C[C@@H]1CN([C@H](C)CO)C(=O)c2cccc(NC(=O)C3CC3)c2O[C@@H]1CN(C)Cc1ccc2c(c1)OCO2 | i | 4 | 1 | -2.1
Cc1ccccc1-c1cnc2c(c1)C(=O)N([C@@H](C)CO)C[C@@H](C)[C@H](CN(C)Cc1ccncc1)O2 | i | -3 | 4 | -3.1
CCC(=O)Nc1ccc2c(c1)OC[C@@H](C)N(C(=O)c1ccncc1)C[C@@H](C)[C@H](OC)CN(C)C2=O | i | 2 | 1 | -2.9
Cc1ccc(S(=O)(=O)Nc2ccc3c(c2)CC(=O)N([C@@H](C)CO)C[C@H](C)[C@@H](CN(C)C(=O)Nc2ccccc2)O3)cc1 | i | -1 | 4 | 2.7
O=C(C[C@@H]1C=C[C@H](NC(=O)Nc2cc(F)ccc2F)[C@H](CO)O1)NCc1ccncn1 | i | 1 | 7 | 0.7
CC(C)NC(=O)Nc1ccc2c(c1)C(=O)N([C@H](C)CO)C[C@H](C)[C@@H](CN(C)C(=O)NC(C)C)OCCCC[C@@H](C)O2 | i | 1 | 5 | 0.5
COc1cccc(CNC(=O)C[C@@H]2CC[C@@H]3[C@@H](COc4ccc(NC(=O)c5cccs5)cc4C(=O)N3C)O2)c1 | i | -1 | 1 | 0.1
C[C@H]1CN([C@@H](C)CO)C(=O)c2cc(NC(=O)CCC(F)(F)F)ccc2O[C@@H]1CN(C)S(C)(=O)=O | i | -2 | -4 | -2.0

# Other compounds follow:
SMILES,FGF22 binding,rRNA inh HTS,rRNA inh HTS OD600,rRNA inh HTS RFP
O=C(C[C@@H]1C[C@H]2c3cc(NC(=O)NC4CCCC4)ccc3O[C@H]2[C@@H](CO)O1)NCc1ccccn1,i,-2,-10,-2.9
Cc1ccc(S(=O)(=O)Nc2ccc3c(c2)C(=O)N([C@@H](C)CO)C[C@H](C)[C@@H](CN(C)C(=O)NC2CCCCC2)O3)cc1,i,2,9,2.5
C[C@@H]1CN([C@H](C)CO)C(=O)c2cc(NC(=O)CCN3CCOCC3)ccc2O[C@H]1CN(C)S(=O)(=O)c1cn(C)cn1,i,-4,3,0.6
CN(C)CC(=O)N1CC2(C1)[C@H](c1ccccc1)[C@@H](CO)N2S(=O)(=O)c1ccccc1,i,1,10,-4.3
CCC(=O)N1C[C@@H](C)[C@H](OC)CN(C)C(=O)c2ccc(NC(=O)NC(C)C)cc2OC[C@@H]1C,i,-4,4,-1.3
Cc1noc(C)c1NC(=O)Nc1ccc2c(c1)CC(=O)N([C@H](C)CO)C[C@H](C)[C@@H](CN(C)Cc1ccc(C(F)(F)F)cc1)O2,i,1,-26,3.6
CN(C)CC(=O)N1[C@@H]2Cn3c(cccc3=O)[C@H]1[C@@H](C(=O)NCc1ccccc1)[C@@H]2CO,i,1,14,-0.3
COc1ccc(C[C@H]2CCn3cc(nn3)COC[C@@H](C(C)C)NC2=O)cc1,i,1,1,-1.0
O=C(C[C@H]1CC[C@@H]2[C@H](COC[C@H](O)CN2Cc2cc(F)cc(F)c2)O1)NCc1cccc(F)c1,i,-3,2,0.8
CCN1[C@@H]2c3ccc(-c4cncnc4)c(=O)n3C[C@@H]2[C@@H](CO)[C@@H]1C(=O)OC,i,-1,0,3.3
C[C@H](CO)N1C[C@H](C)[C@@H](CN(C)C(=O)C2CC2)Oc2ncc(-c3cccnc3)cc2C1=O,i,7,5,-1.4
Cc1ccccc1-c1ccc([C@@H]2[C@H](CO)N3CCCCN(C(=O)CN4CCOCC4)C[C@@H]23)cc1,i,1,20,-2.4
N#C[C@H]1[C@@H](c2ccc(-c3ccccc3)cc2)[C@H](CO)N1C(=O)Cc1ccccc1,i,-56,-74,-13
C[C@@H]1CCCCO[C@@H](CN(C)S(=O)(=O)c2cccs2)[C@H](C)CN([C@H](C)CO)C(=O)c2cc(NS(=O)(=O)c3cccs3)ccc2O1,i,-4,-5,0.3
COc1ccc2c3c(n(C)c2c1)[C@H](CO)N(Cc1ccncc1)CC31CCN(C(=O)Nc2cccc(F)c2)CC1,i,-4,-14,0.7
C[C@H](CO)N1C[C@H](C)[C@@H](CN(C)C(=O)C2CCCCC2)OCCCC[C@H](C)Oc2ccc(NS(=O)(=O)c3ccc(F)cc3)cc2C1=O,i,-2,0,4.3
CN1[C@@H]2Cn3c(ccc(-c4ccncc4)c3=O)[C@H]1[C@@H](C(=O)NC1CCCCC1)[C@@H]2CO,i,1,-7,-1.4
C[C@@H]1CN([C@@H](C)CO)C(=O)c2cc(NC(=O)CCCN(C)C)ccc2O[C@@H](C)CCCCO[C@H]1CN(C)C(=O)Nc1ccc2c(c1)OCO2,i,1,8,-0.7
O=C(Nc1ccccc1F)N[C@H]1CC[C@H](CCNC(=O)C2CCCC2)O[C@H]1CO,i,1,3,1.5
C[C@@H]1CN(C(=O)OC(C)(C)C)CCN1c1ccc(N2CC[C@@H](O)C2)c(C#N)c1,i,0,-7,7.3
CO[C@@H]1CN(C)C(=O)c2cc(NS(=O)(=O)c3c(C)noc3C)ccc2OC[C@@H](C)NC[C@@H]1C,i,0,4,-2.0
Cc1noc(C)c1NC(=O)NCC[C@@H]1CC[C@H](NC(=O)Nc2cccc(F)c2)[C@H](CO)O1,i,0,6,-5.0
C[C@H]1CN([C@@H](C)CO)C(=O)Cc2cc(NC(=O)Nc3ccccc3)ccc2O[C@@H]1CN(C)S(=O)(=O)c1cccs1,i,0,-8,1.1
CCCC#Cc1cnc2c(c1)C(=O)N([C@H](C)CO)C[C@@H](C)[C@H](CN(C)C(=O)c1cnccn1)O2,i,3,2,-3.3
COc1ccc(S(=O)(=O)Nc2ccc3c(c2)C(=O)N([C@@H](C)CO)C[C@H](C)[C@@H](CN(C)C(=O)Nc2ccc(C(F)(F)F)cc2)O3)cc1,i,-2,-4,-0.5
CN(C)CCCNC(=O)[C@H]1[C@H](CO)[C@H]2Cn3c(cccc3=O)[C@H]2N1C(=O)Nc1ccccc1,i,2,6,-0.7
COCC(=O)N1CC(=O)N2[C@H](CO)[C@H](c3ccc(C#CC4CC4)cc3)[C@H]2C1,i,0,2,-1.8
C[C@H]1CN([C@@H](C)CO)C(=O)c2cc(-c3ccc(F)cc3)cnc2O[C@H]1CN(C)CC1CCCCC1,i,5,4,-2.9
CO[C@H](CN(C)Cc1cc(F)ccc1F)[C@H](C)CN([C@@H](C)CO)S(=O)(=O)c1ccc(Cl)cc1,i,2,-40,36
COc1ccc2c3c([nH]c2c1)[C@@H](CO)N(Cc1cc(F)ccc1F)CC31CN(C)C1,i,4,-3,5.2
C[C@H](CO)N1C[C@H](C)[C@H](CN(C)C(=O)Nc2ccc3c(c2)OCO3)Oc2c(NC(=O)NC3CCCCC3)cccc2C1=O,i,-1,5,-0.5
